# VCAM-1 rise = boosters of cytokine-driven VCAM-1 levels – cell-based, plate reader, pooled HUVEC, TNFa stimulus (AID 455) | HUVEC TNFa-induced VCAM-1 immunofluorescence, plate reader; numbers were filed only for top-ranked candidate wells | augmentation, % at 5 µM | hit rate 0.2% among 10,000;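 active = a compound raising TNF-alpha-driven VCAM-1 surface staining, with its hit status upheld on visual or statistical review; inactive = the rest, including hits rejected on review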;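 also: 0% = TNFa with vehicle and 100% = strongest image-checked hit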
# 26S disassembly = blocks ATP-dependent breakdown of the yeast 26S proteasome | hit rate 0.2% among 24,000 | inhibition of disassembly, % (no concentration beside the values) | anti-FLAG beads, GFP-proteasome disassembly, flow cytometry;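 active = above 40%; inconclusive = likely self-fluorescent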;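 also: plate controls were ATP control with full disassembly for no effect and ATP-gamma-S intact proteasomes for full effect; higher percent means more bead fluorescence retained so stronger block of disassembly; stock transfer was 100 nL into about 10 µL; wells with too few beads may also be inconclusive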
# An asterisk follows results filed as active; i = inactive; ? = inconclusive; nt = no result given.
# Start of the data: the first 2 entries (preview)
item	molecule	VCAM-1 rise	26S disassembly
1	COc1cccc(-c2nnc(Nc3nc4c(F)cccc4s3)o2)c1	nt	2.2
2	O=C(CCN1C(=O)c2ccccc2C1=O)NCCC1=CCCCC1	nt	2.4

# The list itself, previewed entries included:
item	molecule	VCAM-1 rise	26S disassembly
1	COc1cccc(-c2nnc(Nc3nc4c(F)cccc4s3)o2)c1	nt	2.2
2	O=C(CCN1C(=O)c2ccccc2C1=O)NCCC1=CCCCC1	nt	2.4
3	COCCN(C(=O)Nc1ccc(OC)cc1OC)C1CCN(C(C)C)CC1	nt	1.0
4	c1ccc2oc(SCc3cn4ccccc4n3)nc2c1	i	0.4
5	Cc1cc(NC(=O)c2cc(-c3ccco3)on2)n(-c2ccccc2)n1	i	-0.2
6	COc1ccc(-c2cc(C(=O)NCc3cccnc3)no2)cc1OC	nt	0.2
7	CCCCOc1ccc(CSc2n[nH]c(C)n2)cc1	i	-0.8
8	CCCN1Cc2cccc(C(N)=O)c2C1=O	nt	0.8
9	COCCn1c(=NC(=O)CSCC(=O)Nc2cc(C)on2)sc2cc(C(=O)OC)ccc21	nt	-0.4
10	Cc1nc(N)[nH]c(=O)c1CCC(=O)OCC(C)C	i	0.1
11	CC(=O)c1cccc(NC(=O)c2cc3ccccn3n2)c1	nt	-3.6
12	CCOC(=O)N1CCC(N2Cc3cccc(C(=O)Nc4ccc(OC)c(OC)c4)c3C2=O)CC1	nt	0.5
13	Cn1c(SC/C=C/c2ccccc2)nnc1-c1cnccn1	i	-2.1
14	O=C(CCn1c(=O)c2sccc2n(Cc2cc(=O)n3ccccc3n2)c1=O)NCc1ccco1	nt	-0.1
15	Cc1nc(-c2cccc(-c3noc(C)n3)c2)no1	i	0.4
16	CSC(=O)CC(=O)NC(=O)c1ccccc1	i	3.4
17	COC(=O)c1cc2ccsc2n1CC(=O)NCC1CCCO1 (stereo not given)	nt	0.0
18	CCn1cc(C2=NOC(C(=O)O)C2)c(C)n1 (stereo not given)	nt	-1.6
19	Cc1noc(COc2ccccc2OCC(O)CNC(C)(C)C)n1 (stereo not given)	i	-0.9
20	CC12CN3CC(C)(CN(C1)C3c1ccc(Br)cc1)C2 (stereo not given)	i	0.8
21	O=C(NC1CCN(Cc2nnnn2CCc2ccccc2)CC1)c1ccccc1F	i	1.1
22	CCCc1cc(=O)oc2cc3oc(C)c(C)c3cc12	nt	-0.6
23	COc1cc(-c2noc(-c3ccccc3C(=O)NCc3ccco3)n2)cc(OC)c1OC	i	0.7
24	CCn1c(CSc2nnc(-c3cccnc3)n2-c2ccccc2C)nc2cc(C(=O)O)ccc21	i	-1.7
25	c1ccc(CCNc2ccc3nncn3n2)cc1	i	-1.1
26	CCOc1ccccc1NC(=O)C1CCCN(C(=O)NCc2ccccc2)C1 (stereo not given)	i	0.4
27	CCOc1ccc(NC(=O)CN2CCN(CC(=O)Nc3cc(OC)cc(OC)c3)CC2)cc1	nt	1.8
28	Cc1ccccc1Cn1ccc(NC(=O)c2cnn3c(C(F)(F)F)cc(-c4ccco4)nc23)n1	i	-0.8
29	C=CCn1c(SCC(=O)Nc2ccc3c(c2)OCO3)nc2ccccc2c1=O	i	1.6
30	COc1ccc(OC)c(-c2cc(C(=O)Nc3c(C)nn(Cc4ccc(Cl)cc4)c3C)no2)c1	nt	0.6
31	CCOc1ccc(OCC)c(NC(=O)C2CCCN(S(=O)(=O)c3cccs3)C2)c1 (stereo not given)	nt	1.2
32	CCC(=O)O[C@@H]1CC(=O)O[C@H](C)CC=CC=C[C@@H](O)[C@H](C)C[C@H](CC=O)[C@H](O[C@H]2O[C@H](C)[C@@H](O[C@H]3C[C@@](C)(O)[C@@H](OC(=O)CC)[C@H](C)O3)[C@H](N(C)C)[C@H]2O)[C@H]1OC	i	-0.4
33	O=C(O)CN1C(=O)CCS(=O)c2ccccc21 (stereo not given)	nt	1.1
34	CN(CCc1ccccn1)c1ncnc2[nH]ncc12	i	-0.1
35	CC(C)(C)OC(=O)NCC(=O)NCC(=O)OCc1ccccc1	nt	0.5
36	CCOC(=O)C1=C(NC#N)OC(C)=C(C)C1c1ccc(O)cc1 (stereo not given)	i	-1.9
37	COC(=O)c1c(N)sc(C(=O)N2CCOCC2)c1C	i	-0.7
38	CCC(C)NC(=O)c1cc(CC(C)C)on1 (stereo not given)	i	-0.8
39	CCn1ncc(C2=NOC(C(=O)Nc3ccc4c(c3)OCO4)C2)c1C (stereo not given)	i	-1.7
40	O=C(NCc1cccnc1)c1noc2c1CCCC2	nt	0.1
41	Cc1oc(-c2ccc(Cl)cc2)nc1CS(=O)CC(=O)NCCCN(C)C1CCCCC1 (stereo not given)	i	2.6
42	COC(=O)c1cc(=O)n(Cc2ccco2)c(=Nc2ccc(F)c(Cl)c2)s1	nt	-0.5
43	O=C(Nn1cnnc1)c1ccncc1	nt	-0.3
44	O=C(N1CCOCC1)N1CCC(NC(=O)C23CC4CC(CC(C4)C2)C3)CC1	i	1.0
45	CCOC(=O)N1CCN(CC(=O)Nc2cc3c(cc2C(C)=O)OCO3)CC1	nt	-2.1
46	CCCCNC(=O)CS(=O)Cc1nc(-c2cccc(C)c2)oc1C (stereo not given)	nt	-2.0
47	CCC1Oc2ccccc2N(CC(=O)Nc2ccc(OC)cc2OC)C1=O (stereo not given)	i	-2.6
48	Cc1ccc(-n2nnc3c(SCC(=O)N4CCN(c5ccccc5)CC4)ncnc32)cc1	nt	-0.1
49	COc1ccc(C2SCC(=O)N2c2c(C)n(C)n(-c3ccccc3)c2=O)c(OC)c1 (stereo not given)	nt	-0.7
50	CC1Cc2ccccc2N1C(=O)CCS(=O)(=O)c1cccs1 (stereo not given)	nt	0.7
51	CC(C)(C)NC[C@H](O)COc1nsnc1N1CCOCC1	i	-1.0
52	COc1ccc(OC)c(C2C(C(=O)Nc3ccccc3OC)=C(C)Nc3nc(CCCO)nn32)c1 (stereo not given)	nt	-1.6
53	O=C(O)C1CCCN(S(=O)(=O)c2ccc(Cl)s2)C1 (stereo not given)	i	0.3
54	Cc1ccc(Cn2ccc(NC(=O)c3c(-c4ccccc4Cl)noc3C)n2)cc1	nt	0.1
55	O=C(CN(c1ccccc1)S(=O)(=O)c1ccccc1)N1CCN(Cc2ccc3c(c2)OCO3)CC1	i	0.8
56	O=C(NCC1COc2ccccc2O1)C1CCCN(S(=O)(=O)c2cnc[nH]2)C1 (stereo not given)	i	-2.0
57	O=C1CCc2cc(S(=O)(=O)N3CCCC3C(=O)N3CCN(c4ccccc4)CC3)ccc2N1 (stereo not given)	nt	-1.5
58	O=C(c1ccco1)c1nnn(Cc2ccccc2)c1-c1ccccc1	i	3.5
59	COc1ccc(NC(=O)CSc2nnc(Cc3cccn3C)n2-c2ccc(C)cc2)cc1OC	nt	0.0
60	CCN(CC)CCNC(=O)Cn1nc(-c2ccc(C)cc2)ccc1=O	nt	-0.7

# Next part
item	molecule	VCAM-1 rise	26S disassembly
61	CCOC(=O)CC(=O)CSc1ccc2nnc(-c3cccc(F)c3)n2n1	nt	-2.4
62	C=CCn1c(SCC#N)nc2c(c1=O)C(C)(C)Cc1ccccc1-2	i	-1.9
63	CCCN(CCC)CCCNC(=O)c1cc2c(=O)n(C)c3ccccc3c2n1C	nt	-0.4
64	CCCCn1c(CN(C)Cc2ccccc2)nc2c1c(=O)n(C)c(=O)n2C	i	1.6
65	Cc1ccc2cc(CCNC(=O)C(C)C)c(=O)[nH]c2c1C	i	0.7
66	CCOC(=O)c1c(C)c(C(=O)N2CCN(C(=O)c3ccco3)CC2)c(C)n1C	nt	-3.1
67	CCOc1ccc(CCNc2cc(C)nc3ncnn23)cc1OCC	nt	1.7
68	CCCSc1nnc(Cc2cc(=O)[nH]c(=O)[nH]2)n1-c1cc(C)ccc1C	nt	2.3
69	COc1ccccc1-n1cnc2cc(NS(=O)(=O)c3ccccc3)ccc21	i	1.8
70	CCCCOC(=O)Nc1nccs1	i	0.8
71	CCOC(=O)CSc1nc2ccccc2c(=O)n1CCCCCC(=O)NCc1ccco1	nt	6.7
72	CCn1nccc1C(=O)Nc1nccs1	i	0.2
73	COc1ccc(Cn2c(SCC(=O)NCc3ccco3)nc3ccsc3c2=O)cc1	nt	0.1
74	C=CCn1c(NCc2cc(C)ccc2O)nc2ccccc21	nt	1.7
75	Cc1nc2ncnn2c(C)c1CCC(=O)Oc1ccccc1	nt	-0.6
76	CCC(C)NC(=O)C1c2ccccc2C(=O)N1Cc1cc(OC)ccc1OC (stereo not given)	nt	2.6
77	O=C(NCCc1ccccc1)C1CCN(S(=O)(=O)c2cccc3nsnc23)CC1	nt	2.0
78	Cc1ccccc1OCC(O)Cn1c(NCCN(C)C)nc2c1c(=O)n(C)c(=O)n2C (stereo not given)	nt	0.4
79	O=C(CN1C(=O)C2C3C=CC(C3)C2C1=O)NCC1COc2ccccc2O1 (stereo not given)	nt	-2.1
80	COc1ccccc1C(=O)N1CCN=C1SC	nt	-0.4
81	CCOC(=O)c1c(-c2ccc(C)o2)csc1NC(=O)CN1CCN(CC)CC1	i	-11.2
82	CC1Cn2c(nnc2-c2cccc(Cl)c2)S1 (stereo not given)	nt	?
83	COc1cc(-n2c(C)nc3cc(C(=O)NCc4ccco4)ccc32)cc(OC)c1OC	nt	0.7
84	CCOc1ccc(CN2C(=O)CCC2(C)C(=O)NCc2cccnc2)cc1 (stereo not given)	nt	0.5
85	COc1cc(-c2nc(S(=O)(=O)c3ccc(C)cc3)c(N(C)C)o2)cc(OC)c1OC	i	-10.8
86	COc1ccc(NS(=O)(=O)c2ccc3c(c2)CCC(=O)N3)c(OC)c1	nt	-2.6
87	Cc1nc2nc(Cc3ccccc3)[nH]n2c(=O)c1Cc1ccccc1	i	-0.6
88	COc1ccc(-c2noc(C3CCCN(C(=O)CCc4ccccc4)C3)n2)cc1 (stereo not given)	i	-0.6
89	COc1ccc(N(CC(=O)O)S(=O)(=O)c2cccnc2)cc1	nt	-0.5
90	COc1cc(C(=O)NCCC(=O)NCc2ccc3c(c2)OCO3)cc(OC)c1OC	nt	-1.1
91	COc1ccccc1CNC(=O)CS(=O)Cc1nc(-c2ccccc2C)oc1C (stereo not given)	nt	165.5*
92	COc1cccc(-n2nc(C(=O)O)c3ccccc3c2=O)c1	nt	-0.9
93	COc1cc([C@@H]2c3cc4c(cc3[C@H](O)[C@H]3COC(=O)[C@H]23)OCO4)cc(OC)c1OC	i	-0.3
94	CCN1C(=C2C(=O)c3ccccc3C2=O)C=Cc2ccccc21	i	1.2
95	Cc1n[nH]c(C)c1S(=O)(=O)N1CCC(C(=O)O)CC1	nt	0.2
96	CC(C)Cc1cc(C(=O)NCc2cccs2)no1	nt	0.0
97	CCN(CC)c1ccc(/C=N/n2nnnc2N)c(O)c1	i	5.0
98	COc1ccc(NC(=O)CCn2cccc2)cc1	nt	-3.2
99	CCN(CC)C(=O)CSC1=Nc2ccccc2C2=NC(Cc3c[nH]c4ccccc34)C(=O)N12 (stereo not given)	nt	3.9
100	CN1C(=O)CSc2ccc(NC(=O)N3CCOCC3)cc21	nt	1.5
101	COc1ccc(-c2noc(COc3ccc(Cl)c(C)c3)n2)cc1	i	0.5
102	COc1cccc(CN(C)CC(=O)NC(=O)NCc2ccco2)c1	i	1.5
103	CC(=O)NCCn1c(SCC(=O)NCc2ccco2)nc2ccccc2c1=O	nt	-1.9
104	CN(CC(=O)N1CCc2ccccc21)S(=O)(=O)c1cccc2cccnc12	nt	0.1
105	CCOC(=O)C1CCCN(C(=O)c2cn(C)c3ccc(S(=O)(=O)N(C)C)cc3c2=O)C1 (stereo not given)	nt	-0.7
106	CCC(CC)C(=O)NCCc1cc2ccc(OC)cc2[nH]c1=O	nt	-0.3
107	Fc1ccc(-c2cc(C(F)(F)F)nc(-n3cncn3)n2)cc1	nt	-1.0
108	O=C(OCC(=O)N1CCCCCC1)c1cccs1	i	-2.2
109	COc1ccc(NC(=O)CCCNS(=O)(=O)c2cccs2)cc1	nt	-1.5
110	CSc1nc(N2CCOCC2)c2c(c1C#N)CCCCC2	i	-1.7
111	CCn1ncc(Br)c1C(=O)N(C)C12CC3CC(CC(C3)C1)C2	nt	-2.9
112	O=C(NCCO)c1scc2c1OCCO2	i	0.5
113	CCOC(=O)c1ccc(N2C(=O)C3CC=CCC3C2=O)cc1 (stereo not given)	i	-0.2
114	CCOC(=O)c1[nH]c2c(c1C)C(=O)CC(c1ccc(N(C)C)cc1)C2 (stereo not given)	nt	2.5
115	Cn1cc(C(=O)NCCN2CCN(c3ccccc3F)CC2)c2c3ccccc3n(C)c2c1=O	nt	-0.7
116	Cc1n[nH]c(C)c1S(=O)(=O)N1CCCC(C(=O)NCc2cccs2)C1 (stereo not given)	nt	-1.1
117	CCN(CCCNC(=O)C1CCN(S(=O)(=O)CC)CC1)c1ccccc1	nt	2.3
118	CN(C)c1ccc(-c2nc3n(n2)C(c2cccnc2)C2=C(CC(C)(C)CC2=O)N3)cc1 (stereo not given)	nt	6.5
119	Cc1c(C)c2c(C)[nH]nc2oc1=O	nt	0.9
120	O=C(CC1Oc2ccccc2NC1=O)NC1CCCC1 (stereo not given)	nt	1.7

# More compounds follow.
item	molecule	VCAM-1 rise	26S disassembly
121	CC1CCN(CCCNC(=O)c2cc3c(=O)n(C)c4ccccc4c3n2C)CC1	nt	-1.7
122	CC(C)(C)NCC(O)c1cc(O)cc(O)c1 (stereo not given)	i	-0.2
123	O=C(CSc1nnc(Cc2ccccc2)o1)N1CCc2ccccc21	nt	-1.0
124	CCOC(=O)c1ccc(NC(=O)CSCc2ccco2)cc1	i	1.2
125	COCCCNC(=O)c1cn(C)c(=O)c2cc(OC)c(OC)cc12	nt	-1.3
126	CCOCCCNC(=O)C1CCCN(S(=O)(=O)CC)C1 (stereo not given)	i	-1.4
127	CCOC(=O)C1CCN(C(=O)Cc2c(C(=O)O)n(C)c3ccccc23)CC1	nt	1.4

# A portion of the library; count on the stated rates, not on these rows.
